# VDR inhibitor: vitamin D3 receptor (human) inhibition; P11473; VDR-SRC2-3 peptide fluorescence polarization, 2 h; Potency, µM, inactives show max response, negative = inhibition, usual class: inhibitors; 400,000 tested, 0.93% active; AID 504847; active means well fitted inhibition curve with a large enough effect; inconclusive means small, poorly fitted or top-dose-only effect, or another doubt; inactive means no such curve, though single readings can be large or run the other way; further: series mostly up to about 120 µM
# Target sequence (P11473 whole entry, looked up): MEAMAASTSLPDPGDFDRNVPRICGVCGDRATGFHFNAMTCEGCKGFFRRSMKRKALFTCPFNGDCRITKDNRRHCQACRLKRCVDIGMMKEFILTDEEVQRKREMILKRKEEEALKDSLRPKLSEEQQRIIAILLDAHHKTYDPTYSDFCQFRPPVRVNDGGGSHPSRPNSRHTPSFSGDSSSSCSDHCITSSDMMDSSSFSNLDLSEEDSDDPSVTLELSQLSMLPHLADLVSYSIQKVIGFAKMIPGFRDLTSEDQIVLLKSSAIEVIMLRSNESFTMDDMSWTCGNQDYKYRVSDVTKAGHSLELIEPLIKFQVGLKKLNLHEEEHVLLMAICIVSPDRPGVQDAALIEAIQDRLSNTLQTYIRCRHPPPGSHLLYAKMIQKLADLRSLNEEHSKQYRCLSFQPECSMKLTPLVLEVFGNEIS
#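 Compounds are added to VDR with labelled SRC2-3 coactivator peptide and held 2 h at room temperature. Inhibition of the VDR–peptide interaction is then read as a change in fluorescence polarization.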
# * marks the source's active call; other numbers are inactive results; u = inconclusive; & = joins results of further samples. On the % scale 0 is the no-effect control and ±100 the full control effect; potency means the concentration at half of the fitted maximal effect. Not all compounds are listed. The share of hits here may be higher or lower than overall.
VDR inhibitor	smiles
-15.5%	C#CCOCCOCCOCCNc1nc(N2CCN(C(=O)[C@H](CCC(=O)O)n3cc(C(N)Cc4ccc(O)cc4)nn3)CC2)nc(N2CCN(C(=O)[C@H](CCC(=O)O)n3cc(C(N)CC(C)C)nn3)CC2)n1 (some centres undefined)
-0.1%	Cc1ccc(-c2noc(=O)n2CC(=O)c2ccc(Cl)cc2)cc1
-3.1%	Cc1ccc(NC(=O)NNC(=O)c2snnc2C)cc1
20.5%	COc1cc(/C=c2\sc3n(c2=O)C(c2ccccc2)C(c2ccccc2)=NN=3)ccc1O (centres undefined)
2.2%	O=C(/C=C/c1ccc(OC(F)F)cc1)Nc1cccc(S(=O)(=O)NC2=NCCCCC2)c1
14.3%	Fc1ccc(Nc2nnc(C(F)(F)F)s2)cc1Cl
3.3%	O=C(O)CC1(CC(=O)Nc2ccc(C(F)(F)F)cc2)CCCC1
1.8%	CCCSc1nc2c(c(=O)[nH]c(=O)n2C)n1CCc1ccccc1
-7.0%	O=C(COC(=O)C1CCN(S(=O)(=O)c2ccc(Cl)c(C(F)(F)F)c2)CC1)NCc1ccco1
-9.6%	O=C(CCCCCCCCCCCCC1CCCC1)Nc1ccc(S(=O)(=O)c2ccc(NC(=O)CCCCCCCCCCCCC3CCCC3)cc2)cc1
5.4%	COc1ccc(-c2noc(CSc3nc(-c4ccccc4)cc(=O)[nH]3)n2)cc1OC
-28.6%	COc1ccccc1NC(=S)NCc1ccccn1
4.8%	CC(=O)c1cc(-c2ccccc2)n(CCC(=O)Nc2ccc(C)cc2C)c1C
27.1%	Nc1nc(COC(=O)C2CC(=O)N(Cc3ccccc3Cl)C2)nc(Nc2ccccc2)n1 (centres undefined)
2.0%	NC(=O)COC(=O)c1cc(S(=O)(=O)N2CCN(c3ccccc3)CC2)ccc1Cl

# Random excerpt: two entries already listed.
VDR inhibitor	smiles
-0.1%	Cc1ccc(-c2noc(=O)n2CC(=O)c2ccc(Cl)cc2)cc1
14.3%	Fc1ccc(Nc2nnc(C(F)(F)F)s2)cc1Cl

# Continued:
VDR inhibitor	smiles
-18.3%	C[C@]12c3[nH]c4ccc(Cl)cc4c3CCN1C(=O)[C@@H](CC(=O)NCc1ccco1)C[C@@H]2C(=O)N1CCCCC1
3.2%	Cc1ccc(NC(=O)COC(=O)c2cccc3c2C(=O)c2ccccc2C3=O)c(C)c1
-12.0%	CCOC(=O)c1sc(NC(=S)NC(=O)C2CC2)cc1C
-1.4%	CC1CCc2cc(F)ccc2N1C(=O)CCC(=O)O (centres undefined)
-19.1%	COc1ccc(C(=O)NCc2oc(-c3ccccc3)cc2C(=O)O)cc1
1.1%	COc1ccc(CCNC(=O)C2CCCN(S(=O)(=O)c3cnc[nH]3)C2)cc1OC (centres undefined)
-5.3%	COc1ccc2nccc(C(N)=O)c2c1
-9.0%	CC1CCN(C(=O)CCN2C(=O)C3C4C=CC(C4)C3C2=O)CC1 (centres undefined)
-4.4%	COCCNC(=S)NCc1cccs1
0.2%	COc1ccc(OC)c(-n2c(-c3ccc(S(C)(=O)=O)cc3)cc(C=O)c2C)c1
8.7%	COc1ccc(OCCCC(=O)NCC(C)C)cc1
-2.9%	O=[N+]([O-])c1ccccc1S(=O)(=O)NCCSCc1ccco1
-6.5%	CCOC(=O)c1n[nH]n2c1nc(=O)c1ccccc12
10.5%	N#Cc1ccc(OCC(=O)Nc2ccncc2)cc1
-10.9%	Cc1onc(-c2c(Cl)cccc2Cl)c1C(=O)N1CCN(Cc2ccccc2)CC1
-4.7%	O=C(COC(=O)c1cccnc1Cl)NC12CC3CC(CC(C3)C1)C2
-10.2%	N#Cc1ccc(-c2ccc(F)cc2)nc1Oc1ccccc1
22.3%	CCOc1ccc(C(=O)c2c(N)c(-c3nc(-c4ccc5c(c4)OCO5)cs3)c3ccccn23)cc1
-5.1%	Cc1ccc(C=C2C(=O)c3ccccc3C2=O)o1
20.3%	CC(=O)c1cccc(NC(=O)Cn2cnc(S(=O)(=O)N3CCCCC3)c2)c1
-20.9%	Cc1c(-n2cc(C(=O)O)c(=O)c3cc(F)c(N4CCCC(O)C4)c(F)c32)c(=O)n(-c2ccccc2)n1C (centres undefined)
-16.4%	Cc1ccc(C(=O)NCCc2nnc3ccc(SCC(=O)Nc4c(C)cc(C)cc4C)nn23)cc1
20.4%	CCN(CC)S(=O)(=O)c1cccc(-c2n[nH]c(=S)n2C(C)COC)c1 (centres undefined)
-10.7%	CCC(Sc1nc2c(c(=O)[nH]1)CCC2)C(=O)Nc1cccc(OC)c1 (centres undefined)
28.3%	CCOC(=O)C1CCCN(c2ncnc3c2nnn3C)C1 (centres undefined)
2.4%	CCSc1nc(O)cc(=O)n1-c1ccc(OC)cc1
-30.4%	CCCCN1C(=O)C(=O)NC[C@@H]1CCCCN
25.0%	COc1ccc(CCNC(=O)[C@@H](NC(=O)N2CCn3c2nc2ccccc23)C(C)C)cc1OC
-2.3%	CCN(CC)C(=O)CSc1nc2cc3c(cc2c(=O)n1CCCCCC(=O)NCCc1ccc(OC)c(OC)c1)OCO3
-14.4%	CC(C)C[C@@H](CO)N1CCN(CC(C)C)CCC1=O
-17.8%	COc1ccc(CCn2c(NCc3ccco3)nc3c2c(=O)[nH]c(=O)n3C)cc1
8.5%	CCc1ccccc1NC(=O)Cn1c(=O)n(CCCCCC(=O)NCc2ccc(C)cc2)c(=O)c2sccc21
-12.4%&7.3%	CCc1ccccc1NC(=O)Nc1c(C)n(C)n(-c2ccccc2)c1=O
-4.7%	CCCn1c(SCC(=O)Nc2ccc3c(c2)OCO3)n[nH]c1=O
3.6%	CCN(CC(=O)NC1CCS(=O)(=O)C1)S(=O)(=O)c1ccccc1Cl (centres undefined)
-11.2%	CC(CC(=O)NCCc1ccc(F)cc1)c1ccccc1 (centres undefined)
3.7%	C=CC(=O)O
7.8%	COc1ccc(Cl)cc1NC(=O)CN(C)C(=O)c1ccc(-n2cncn2)cc1
0.7%	Cc1ccc(C)c(N(CC(=O)NN=C2CCCCCCC2)S(C)(=O)=O)c1
9.0%	CCN=C1SC(CC(=O)Nc2ccc(C(F)(F)F)cc2)C(=O)N1CC (centres undefined)
0.7%	CC(C)c1cc(C(=O)N/N=C/c2c[nH]c3ccccc23)n[nH]1
12.3%	CCC1C(c2ccccc2)=CCC(C(=O)O)C1C (centres undefined)
29.8%	CCCOc1ccc(CN(CCO)CCO)cc1C(=O)OC
12.6%	COC(=O)NCc1ccc(CNC(=O)OC)cc1
-10.6%	CCN(CC)c1ccc(/C=N/Nc2ccc(C)cc2)c(O)c1
-5.3%	O=C(CCn1c(=O)[nH]c2ccccc2c1=O)N1CCN(c2ccc(Cl)cc2)CC1
-19.6%	O=C(OCC(=O)N1CCc2ccccc2C1)c1ccc(Cl)c([N+](=O)[O-])c1
2.1%	CC(C)(C)CC(=O)Nc1cccc2c1CCCC2
1.4%	N#Cc1cccc(-c2cc(NCc3cccnc3)ncn2)c1
-0.8%	COc1ccc(-c2cc(C(=O)Nc3c(Cl)cc(Cl)cc3Cl)c3ccccc3n2)cc1OC
-0.3%	COCCCN1C(=O)C(=O)/C(=C(/O)c2ccc(C)cc2)C1c1ccccc1 (centres undefined)
-17.4%	CCNC(=S)N/N=C(\C)c1cccc(OC)c1
-20.4%	COC(=O)C1=CN(Cc2ccc(OC)c(OC)c2)C=C(C(=O)OC)C1c1cccc(OC)c1OC
7.6%	Cc1cc(C)n(C(=O)c2ccc(NC(=O)C3COc4ccccc4O3)cc2)n1 (centres undefined)
5.7%	O=[N+]([O-])c1cccc(/C=N/Nc2nccnc2Cl)c1
-22.0%	COc1cccc(N/C(SCc2cccc([N+](=O)[O-])c2)=C(/C#N)C(=O)NCc2cccs2)c1
24.5%	O=C(CCC(=O)c1ccc(F)cc1)OC1CCOC1=O (centres undefined)
2.4%	Cc1cccc(NC(=O)NCCc2ccc(Cl)cc2)c1
-4.4%	CNC(=O)C1CCCN(c2nnc(C)c3c(C)n(-c4ccccc4)nc23)C1 (centres undefined)
2.0%	COC(=O)C1CCN(C(=O)Cc2ccc(Br)cc2)CC1

# Other results.
VDR inhibitor	smiles
-5.6%	CCCN1CN(Cc2ccccc2)CNC1=S
20.8%	O=C(CCN1CCCO1)NC1CCCc2c1cnn2-c1ccccc1F (centres undefined)
-3.9%	O=C(NC1CC(=O)N(c2ccccc2)C1)N1CCN(C(=O)c2ccco2)CC1 (centres undefined)
9.9%	Cc1cc(C(C)(C)C)cc(C)c1C[n+]1ccc2ccccc2c1
-9.9%	S=C(Nc1ccccc1)N1CCOCCOCCN(C(=S)Nc2ccccc2)CCOCCOCC1
3.8%	CC(C)C(=O)NC(Nc1ccccc1F)C(Cl)(Cl)Cl (centres undefined)
-18.1%	O=C(Nc1ccc(Cl)cc1)C1CCCN(S(=O)(=O)c2cnc[nH]2)C1 (centres undefined)
-15.9%	Nc1c(N(Cc2ccco2)C(=O)c2ccc(Br)cc2)c(=O)[nH]c(=O)n1Cc1ccccc1
-2.5%	CN(C)C(=O)CCc1ccc2c3c([nH]c2c1)[C@]1(C)[C@@H](C(=O)N2CCOCC2)C[C@H](CC(=O)NCc2cccc(C(F)(F)F)c2)C(=O)N1CC3
-14.6%	O=C(NCc1ccccn1)c1ccc2c(=O)n3nc(Nc4ccccc4)sc3nc2c1
16.8%	CCOC(=O)N1CCN(CCC(=O)Nc2ccc(C)c(Br)c2)CC1
-26.4%	COc1ccc2c(c1)Cc1sc(NC(=O)c3ccc(Cl)cc3)nc1-2
-5.0%	COc1ccc(NC(=O)CN2C(=O)C(C)Oc3ccccc32)c(OC)c1 (centres undefined)
-9.4%	COc1ccc(NC(=O)Nc2cccc3ccccc23)cc1S(N)(=O)=O
-5.4%	COC(=O)COc1ccc2c(c1)O/C(=C\c1cccc([N+](=O)[O-])c1)C2=O

# An excerpt from further up:
VDR inhibitor	smiles
3.8%	CC(C)C(=O)NC(Nc1ccccc1F)C(Cl)(Cl)Cl (centres undefined)
-18.1%	O=C(Nc1ccc(Cl)cc1)C1CCCN(S(=O)(=O)c2cnc[nH]2)C1 (centres undefined)
-15.9%	Nc1c(N(Cc2ccco2)C(=O)c2ccc(Br)cc2)c(=O)[nH]c(=O)n1Cc1ccccc1
-2.5%	CN(C)C(=O)CCc1ccc2c3c([nH]c2c1)[C@]1(C)[C@@H](C(=O)N2CCOCC2)C[C@H](CC(=O)NCc2cccc(C(F)(F)F)c2)C(=O)N1CC3
-14.6%	O=C(NCc1ccccn1)c1ccc2c(=O)n3nc(Nc4ccccc4)sc3nc2c1
16.8%	CCOC(=O)N1CCN(CCC(=O)Nc2ccc(C)c(Br)c2)CC1
-26.4%	COc1ccc2c(c1)Cc1sc(NC(=O)c3ccc(Cl)cc3)nc1-2

# Arranged by heavy-atom count (lowest first): part of the list above.
VDR inhibitor	smiles
24.5%	O=C(CCC(=O)c1ccc(F)cc1)OC1CCOC1=O (centres undefined)
-18.1%	O=C(Nc1ccc(Cl)cc1)C1CCCN(S(=O)(=O)c2cnc[nH]2)C1 (centres undefined)
20.4%	CCN(CC)S(=O)(=O)c1cccc(-c2n[nH]c(=S)n2C(C)COC)c1 (centres undefined)

# Later entries
VDR inhibitor	smiles
3.5%	O=C(Nc1ccc(Sc2ccc(Br)cc2)cc1)c1ccco1
5.1%	O=C(NCc1ccc(-c2nc3ccccc3s2)cc1)c1ccco1
-10.6%	Cc1ccc(C)c(OCCC(=O)OCC(=O)NCCc2ccc(S(N)(=O)=O)cc2)c1
2.7%	CCOc1ccc2[nH]c(=O)c(CN(CC3COCCO3)C(=O)c3ccc(C)cc3)cc2c1 (centres undefined)
-2.5%	Clc1ccc(-c2nnc(-c3ccco3)o2)cc1
-3.9%	Cc1cccc(NC(=O)CS(=O)(=O)c2c[nH]c3ccccc23)c1C
13.9%	CCn1c(C(=O)N2CCCC(C(=O)O)C2)cc2sccc21 (centres undefined)
3.0%	CN(c1ccc(OCC(=O)OCC(=O)Nc2ccccc2)cc1)S(=O)(=O)c1cccs1
-6.7%	COc1ccc(-c2nc(CSCC(=O)N3CCN(c4ccc(OC)cc4)CC3)c(C)o2)cc1
13.4%	C[C@H](NC(=O)N1CCn2c1nc1ccccc12)C(=O)NCC1CCCO1 (some centres undefined)
0.2%	CC(=O)c1cc(-c2ccccc2)n(CC(=O)Nc2cccc(C)c2)c1C
-2.4%	COc1ccccc1NC(=O)C1=C(C)NC(=O)NC1c1cccs1 (centres undefined)
6.1%	COCCCn1cc(C(=O)c2ccccc2OCC(=O)Nc2cccc(F)c2)cc(C#N)c1=O
-1.6%	O=C(CCCSc1nnc(-c2cccs2)n1CC1CCCO1)c1ccccc1 (centres undefined)
7.0%	COc1ccc(C(=O)CCC(=O)Nc2cccc(C(C)=O)c2)cc1
7.0%	COc1ccc(OC)c(N2C(=NC(=O)C3CCCCC3)SC3CS(=O)(=O)CC32)c1 (centres undefined)
-10.2%	CN(Cc1cnn(-c2ccccc2)c1)C(=O)C1CCC(=O)N(C2CC2)C1 (centres undefined)
-23.7%	C=CCn1c(SCC(=O)c2ccc(O)c(O)c2)nnc1-c1cccc(Cl)c1
8.8%	COCCNc1nc(-c2ccccc2Cl)nc2ccccc12
-5.0%	CCC(=O)NC(c1ccco1)c1cc(Cl)c2cccnc2c1O (centres undefined)
9.5%	CCOC(=O)C1CN(S(=O)(=O)c2ccc(F)cc2)C1
u	CCOc1ccc2nc(NC(=O)c3ccccc3)sc2c1
u	CCOc1ccc(-n2c(=O)c3sc4ccccc4c3n(Cc3ccc(F)cc3)c2=O)cc1
-0.2%	C=CCc1ccc(OCC(O)CN2CCCCC2)c(OC)c1 (centres undefined)
-16.9%	CCCOc1ccc(C(=O)Nc2c(C(=O)c3ccc(C)cc3)oc3ccccc23)cc1
1.1%	CCn1cnc2cc(NCc3ccc(C)cc3)ccc21
-7.1%	COc1ccc(/C=N/NC(=O)c2nn(C)cc2Br)cc1CSCc1ccco1
11.2%	C=CCC1CCCCC12NC(=O)NC2=O (centres undefined)
-15.7%	CC(Cc1ccccc1)NC(=S)CN1CCCC1=S (centres undefined)
u	Cc1cccc(NNC(N)=S)c1
5.9%	CN(C)S(=O)(=O)N(CC(=O)NCc1ccccc1)c1ccccc1
18.7%	Cc1nc(-n2nc(C)c(Cc3ccccc3Cl)c2C)sc1C(=O)N1CCCCC1C (centres undefined)
-13.6%	COc1cc(-c2nnc3sc(-c4ccco4)nn23)cc(OC)c1OC
